Screening data as filed in PubChem.
VDR inh: vitamin D3 receptor (human) inhibition; AID 504847; actives 0.93% (n = 400,000); Potency, µM, for the others: max response, negative = inhibition, usual class: inhibitors; VDR-SRC2-3 peptide fluorescence polarization, 2 h; active = well fitted inhibition curve with a large enough effect; inconclusive = small, poorly fitted or top-dose-only effect, or another doubt; inactive = no such curve, though single readings can be large or run the other way; note: series mostly up to about 120 µM
Target sequence (P11473 whole entry, looked up): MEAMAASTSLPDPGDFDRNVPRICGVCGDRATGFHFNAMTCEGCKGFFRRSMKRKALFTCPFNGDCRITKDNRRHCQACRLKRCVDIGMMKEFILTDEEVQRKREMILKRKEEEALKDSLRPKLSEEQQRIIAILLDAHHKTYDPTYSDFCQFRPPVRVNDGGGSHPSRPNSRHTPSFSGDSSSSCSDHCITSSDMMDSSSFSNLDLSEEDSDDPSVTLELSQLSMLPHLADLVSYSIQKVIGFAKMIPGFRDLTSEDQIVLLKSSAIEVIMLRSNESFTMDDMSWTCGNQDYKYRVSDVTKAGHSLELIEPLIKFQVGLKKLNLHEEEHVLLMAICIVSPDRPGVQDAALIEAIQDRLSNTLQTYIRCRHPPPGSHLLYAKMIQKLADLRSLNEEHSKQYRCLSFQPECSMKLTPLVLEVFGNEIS
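Compounds are added to VDR with labelled SRC2-3 coactivator peptide and held 2 h at room temperature. Inhibition of the VDR–peptide interaction is then read as a change in fluorescence polarization.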
Starred values were filed as active, the others as inactive; ? = inconclusive; & = joins results of further samples; [ ] = remark or other dose. % is set by controls: 0 for no effect and ±100 for the full control effect; potency is the fitted concentration of half-maximal effect. Only part of the results is shown; the hit share may differ from the screen's.

mol	VDR inh
Cc1cc(Cl)ccc1C(=O)C1CCCN(C2CCSCC2)C1 (stereo not given)	16%
COC(=O)C1=C(c2ccc(C(C)=O)cc2)C[C@@H]2CC[C@H]1N2C(=O)NC1CC1	-5%
CCC1CN(C)CCC1(OC(C)=O)c1ccccc1 (stereo not given)	-12%
O=[N+]([O-])c1ccc(Cl)c([N+](=O)[O-])c1	-12%
COC(=O)C(=O)N1CC2(C)CNCC(C)(C1)C2=O	-5%
CC[N+]1(C)CCCC(OC(=O)C(O)(c2ccccc2)c2ccccc2)C1 (stereo not given)	-13%&-6%
CCC(=NCCOc1ccc(Cl)cc1)c1c(O)n(C)c(=O)n(C)c1=O	-17%
COc1cc2c3cc1Oc1cc(ccc1O)C[C@@H]1c4c(cc(OC)c(O)c4Oc4cccc(c4)C[C@H]3N(C)CC2)CC[N+]1(C)C	1%
CN(C(=O)Oc1ccc(Cl)c2cccnc12)c1ccccc1	-4%
CCN1c2nc3c(C)cccn3c(=O)c2CC2(C(=O)N(C)C(=O)N(C)C2=O)C1C (stereo not given)	-3%
CC12CN3CC(C)(CN(C1)C3c1cccs1)C2 (stereo not given)	-1%
CC(=O)N1CC(=O)Nc2ccc(F)cc2C1c1ccccc1 (stereo not given)	10%&-10%
Cc1cc(Oc2cc(NN3CCCCC3)c([N+](=O)[O-])cc2[N+](=O)[O-])ccc1[N+](=O)[O-]	-19%
O=C(c1cccs1)C1CN2CCC1CC2 (stereo not given)	9%
COc1ccc(CNCCc2c[nH]c3ccccc23)c(OC)c1C	-5%
CCC1(CC)C(=O)NC(=NCCc2c[nH]c3ccccc23)NC1=O	-12%
CCOc1ccc(N=Cc2c(O)n(CCc3ccc(OC)c(OC)c3)c(=O)[nH]c2=O)cc1	-10%
Oc1cccc(/C=N/NP(=S)(c2ccccc2)c2ccccc2)c1	8%
COC(=O)C1=C(c2ccc(Cl)c(C(F)(F)F)c2)C[C@@H]2CC[C@H]1N2C(=O)N1CCC(O)(c2ccc(Cl)cc2)CC1	3%
Cc1cc(OCCCC(=O)NCc2cccs2)ccc1Cl	-2%
CCc1ccc(-n2c(O)c(C(C)=O)c(=O)[nH]c2=O)cc1 (tested in a mixture with another compound)	-21%
O=c1c2ccccc2nc(-c2ccco2)n1-c1ccc(Br)cn1	-2%
C=CCN1C(=O)C2(C(C(=O)OC)=C(N)Oc3c2c(=O)oc2ccccc32)c2ccccc21 (stereo not given)	3%
CCOc1ccc(CN(CCc2ccc3c(c2)OCO3)Cc2cccc(OC)c2)cc1	5%
C=CCN(c1ccc(C(=O)N(CC)CC)cc1)S(C)(=O)=O	-8%
Cn1cccc1/C=C1/C(=O)NC(=O)N(Cc2ccccc2)C1=O	?
Cc1ccc2nc(C)n(-c3ccc(F)cc3)c(=O)c2c1	-17%
CC(=O)Nc1ccc(OC(=O)c2ccccc2N)cc1	4%
COP(=O)(OC)c1nc(-c2ccccc2)oc1NCc1ccccc1	?
O=C(CCl)NCC1CCCO1 (stereo not given)	8%
N#CC(C#N)=Cc1ccc(C=C(C#N)C#N)cc1	?
O=C(O)c1c(C(=O)O)c(-c2ccc(Br)cc2)n2c1CSC2	?
CC(C)CN(C(=O)CN1CC=C(c2ccccc2)CC1)c1c(N)n(CC(C)C)c(=O)[nH]c1=O	15%
Cn1cc(C=C(C#N)C#N)c2ccccc21	-26%
Oc1ccc2c3c1O[C@H]1[C@@H](O)CC[C@@]4(O)C(C2)N(CC2CCC2)CCC314 (stereo not given in full)	9%
CCOc1ccc(-c2cc(C(=O)N3CCC4(CC3)OCCO4)c3ccccc3n2)cc1	-2%
Cc1ccc(N2C(=O)NC(=O)/C(=C/c3cnc(-c4ccccc4)nc3)C2=O)cc1C	32µM*
CC(C)[C@H]1CC2C3CC=C4C[C@@H](O)CC[C@]4(C)C3CC[C@]2(C)[C@H]1O (stereo not given in full)	10%
OC(COCc1ccc(Cl)cc1)CN1CC=C(c2ccccc2)CC1 (stereo not given)	7%&2%
O=P(O)(Oc1ccccc1)OC(c1ccccc1)C(F)(F)C(F)(F)F (stereo not given)	5%
Cc1ccc(P(=S)(c2ccc(C)o2)N2CCOCC2)o1	15%
CN1CCCCC1c1ccc(-c2cccnc2)nc1 (stereo not given)	-4%&0%&-14%
CN1CCN(CCC(=O)OC2CC3CCC(C2)N3C)CC1 (stereo not given)	5%
COc1cc(OC)c(C=O)c(OC(=O)N(C)C)c1	-5%
Cc1ccc(N2C(=O)CC(=O)NC2=O)c(C)c1	?
COc1ccc(CN2C(=O)NC(=O)/C(=C\c3cccc(OC)c3OC)C2=O)cc1	?
CC(=O)OC1(c2ccccc2)CCN(C2CCCCC2)CC1C (stereo not given)	-17%
CCCCC(=O)N/N=C/c1c(O)n(Cc2ccco2)c(=O)[nH]c1=O	-20%
N#CCCn1cc(C(=O)Nc2ccccc2Cl)c(-c2ccc(F)cc2)n1	-8%
c1ccc(N2C3C4CC(C5CCCC54)C32)cc1 (stereo not given)	7%
CCN1CCC2(CC1)NC(CO)(CO)CO2	1%
CCC(C)n1c(O)c(C=NCCc2ccccc2)c(=O)[nH]c1=S (stereo not given)	-16%
C=Cn1ccnc1P(O)(=S)c1nc(C)c(CCOC(C)=O)s1 (stereo not given)	13%
COc1ccc(Cc2c(O)[nH]c(=S)[nH]c2=O)cc1	-14%
CC12CCC3C(CCC4CC(=O)CCC43C)C1CC(=NO)C2=O (stereo not given)	-16%
CNC(C)Cc1ccc(OC)cc1 (stereo not given)	6%
Cc1c(C(=O)N2CCC3(CC2)OCCO3)oc2ccc(S(=O)(=O)N3CCOCC3)cc12	-2%
CN1CCN(/N=C/c2c(O)n(C)c(=O)n(C)c2=O)CC1	-5%
Cc1nc2ccccc2c(=O)n1-c1ccccc1[N+](=O)[O-]	?
NC(=O)CNC(=O)[C@H](Cc1ccccc1)NC(=O)[C@H](CCCN=C(N)N)NC(=O)[C@@H](N)Cc1ccc(O)cc1	2%

(further entries)
mol	VDR inh
Cc1ccc(-c2nn(CCC#N)cc2C(=O)O)cc1C	13%
Cc1cccc(-n2c(-c3ccccc3)nc3ccccc3c2=O)n1	-4%
CCC1CN1P1(=O)OCC(C)([N+](=O)[O-])CO1 (stereo not given)	-3%
CN1C(=S)CN=C(c2ccccc2)c2cc(Cl)ccc21	?
CCC(=NCCO)c1c(O)n(-c2ccc(Cl)cc2)c(=O)[nH]c1=O	2%
Cc1ccc(N(C)C(=O)Oc2cccc3ccc(C)nc23)cc1	3%
COc1ccc(-c2nn(CCC#N)cc2C(=O)O)cc1	4%
Cc1ccccc1NC(=O)NCCN1CC1	-14%
Cc1ccc(C=C2C(Cl)=C(Cl)C(Cl)=C2Cl)cc1	?
O=c1[nH]c(O)c(Cc2ccc3c(c2)OCO3)c(=O)[nH]1	17%
CC(OC(=O)c1cn(C)c2ccccc12)C(=O)N1CCCC1 (stereo not given)	-2%
COc1ccc2c(c1OC)C(=O)OC2c1c(O)n(Cc2ccc(F)cc2)c(=O)[nH]c1=O (stereo not given)	?
CCCCC/C(=N/O)c1c(C)[nH]c2ccccc12	-3%
CCOc1ccc2cc(C#N)c(=O)oc2c1	3%&20%
O=C(OCC(=O)c1ccc([N+](=O)[O-])cc1)/C(=C\c1ccc(Cl)cc1)NC(=O)c1ccccc1	-7%
CC1=C(O)C(=O)C=C2C1=CC=C1C2(C)CCC2(C)C3CC(C)(C(=O)O)CCC3(C)CCC12C (stereo not given)	28µM*
COC(=O)C1=C(c2ccc(-c3ccccc3)c(F)c2)C[C@@H]2CC[C@H]1N2C(=O)NC1Cc2ccccc2C1	3%
Cc1c(C(c2ccc(Br)cc2)c2c(O)c3ccccc3oc2=O)c(=O)n(-c2ccccc2)n1C (stereo not given)	-10%&-11%
O=c1[nH]c(=O)n(C2CCCCC2)c(O)c1C=Nc1ccc(N2CCOCC2)cc1	-3%
COC(=O)C(NC(=S)N1CC2C[C@@H](C1)Cn1c2cccc1=O)C(C)C (stereo not given in full)	1%
COC(=O)C1=C(c2ccc(OCc3ccccc3)cc2)C[C@@H]2CC[C@H]1N2C(=O)NCc1ccccc1	22%
CCN(CC)CCCN=Cc1c(O)n(-c2ccccc2F)c(=O)[nH]c1=O	23%
Cc1ccc2c(c1)=C/C(=C\c1c(O)[nH]c(=O)[nH]c1=O)C(=O)N=2	89µM*
COC(=O)C1=C(c2ccc(Cl)c(C(F)(F)F)c2)C[C@@H]2CC[C@H]1N2C(=O)NC1CC1	-5%
O=[N+]([O-])c1ccc(Sc2nc3ccccc3o2)c([N+](=O)[O-])c1	25µM*
COc1ccc(C(=O)N2C[C@H]3C[C@@H](C2)c2cccc(=O)n2C3)cc1OC	11%
C[N+]12CCC(CC1)C(C#N)(N1CCOCC1)C2 (stereo not given)	-14%
CCCCCCC(C)(C)c1ccc([C@@H]2C[C@H](O)CC[C@H]2CCCO)c(O)c1	2%&-21%
Cn1c(O)c(/C=N/N2CCOCC2)c(=O)n(C)c1=S	-12%
Cc1ccc(-c2cc(-c3ccc(C)cc3)[n+](-c3ccc(C(=O)[O-])cc3)c(-c3ccc(C)cc3)c2)cc1	5%

Compounds shown so far with bromine:
mol	VDR inh
O=c1c2ccccc2nc(-c2ccco2)n1-c1ccc(Br)cn1	-2%
O=C(O)c1c(C(=O)O)c(-c2ccc(Br)cc2)n2c1CSC2	?
Cc1c(C(c2ccc(Br)cc2)c2c(O)c3ccccc3oc2=O)c(=O)n(-c2ccccc2)n1C (stereo not given)	-10%&-11%

More results follow:
mol	VDR inh
CCC1(CC)C(=O)NC(=O)N(CCc2ccccn2)C1=O	8%
CCCCc1ccc2[nH]cc(CCN)c2c1	-5%
CCOC(=O)CNC(=O)CSP(=S)(OCC)OCC	-19%
Nc1c(C(=O)NCCc2ccccc2)c2nc3ccccc3nc2n1CCN1CCOCC1	-4%
COc1ccc(CN2C(=O)NC(=O)/C(=C\c3ccco3)C2=O)cc1	54%[activator]
O=C(C1CCN(S(=O)(=O)c2ccccc2)CC1)N1CCC2(CC1)OCCO2	2%
CC(C)(C)C(=O)N1Cc2ccccc2-n2nncc2C1	-12%
CCOC(=O)C1C(C=C(C)C)C1(C)C (stereo not given)	0%
O=C(Cn1cc(C(=O)c2ccccc2F)c2ccccc21)NC1CC1	-1%
COC(=O)c1ccccc1NC(=O)N1C[C@@H]2C[C@@H](C1)c1cccc(=O)n1C2	-3%
NC(N)=NN=C(/C=C/c1ccc([N+](=O)[O-])o1)/C=C/c1ccc([N+](=O)[O-])o1	?
Cc1ccc(-n2c(O)c(C=Nc3ccc(Br)cn3)c(=O)[nH]c2=O)cc1	-7%
COP(=S)(OC)SCn1nnc2ccccc2c1=O	22µM*
COc1cccc(C2(O)CCN(Cc3ccncc3)CC2)c1	-2%
O=C(c1ccccc1F)c1cn(CC(=O)N2CCCC2)c2ccccc12	-19%
O=c1[nH]c(O)c(C=Nc2cc(F)cc(F)c2)c(=O)[nH]1	-6%
CN1c2ccc([N+](=O)[O-])cc2CC2(C(=O)NC(=O)NC2=O)C1c1ccccc1 (stereo not given)	1%
CCN(CC)C(=O)c1ccc2c(c1)C1C(Cl)C(Sc3ccccc3[N+](=O)[O-])CC1C(C(=O)O)N2 (stereo not given)	2%
COc1ccc(-c2nc(CS(=O)CC(=O)N3CCC4(CC3)OCCO4)c(C)o2)cc1 (stereo not given)	-12%
CCCCC(=O)N/N=C/c1c(O)n(CCc2ccccc2)c(=O)[nH]c1=O	-7%
CCCCn1c(=O)c(C(=O)Nc2ccccc2S(N)(=O)=O)c(O)c2ccccc21	-5%
COC(=O)C1=C(c2ccc(OC)c(OC)c2)C[C@@H]2CC[C@H]1N2C(=O)NCc1ccco1	-21%
CCC1CN2CCC1CC2C(O)c1ccnc2ccc(OC)cc12 (stereo not given)	3%
CSCc1nnc2n1-c1ccc(Cl)cc1C(c1ccccc1)=NC2	-10%
O=C(c1ccccc1)c1ccccc1N=Cc1c(O)[nH]c(=O)[nH]c1=O	1%
c1ccc(N=Nc2ccccc2)cc1	4%
O=C1NC(=S)N(c2ccc(Br)cc2)C(=O)/C1=C/N1CCN(C(=O)c2ccco2)CC1	?
CN(C)P(=S)(Nc1ccccc1)C(Cl)(Cl)Cl (stereo not given)	-10%
CCc1ccccc1NC(=O)CNC1CCCCC1	4%
CC(N)C(=O)c1ccco1 (stereo not given)	0%
CN(C)C(Cc1ccccc1)C(=O)c1c[nH]c2ccccc12 (stereo not given)	-11%

Another view of some results above.
CN1CCN(CCC(=O)OC2CC3CCC(C2)N3C)CC1 (stereo not given)
- VDR inh: 5%

CCN(CC)C(=O)c1ccc2c(c1)C1C(Cl)C(Sc3ccccc3[N+](=O)[O-])CC1C(C(=O)O)N2 (stereo not given)
- VDR inh: 2%

COC(=O)c1ccccc1NC(=O)N1C[C@@H]2C[C@@H](C1)c1cccc(=O)n1C2
- VDR inh: -3%

CCCCC/C(=N/O)c1c(C)[nH]c2ccccc12
- VDR inh: -3%
